# High-throughput results as filed in PubChem BioAssay.
# 2A StopGo = lowers the luciferase signal of an FMDV 2A StopGo reporter; human cells with a luciferase reporter of 2A StopGo recoding; control for the full effect not named in the record; Potency, µM (doses to about 57.9 µM), without a hit: top-dose signal change, negative = less light; 410,000 compounds, 1.2% hits; AID 1159524; active = well fitted falling curve with a large enough effect; inconclusive = small, poorly fitted or top-dose-only effect; inactive = no such curve, though single readings can be large or run the other way; tested in HEK293T cells; note: % is set by controls: 0 for no effect and ±100 for the full control effect; nearly all actives have a fitted effect of over 45% in size; luciferase light after 4 h
# MARV entry inh = blocks Marburg virus binding to or entry into cells; Marburg virus pseudotyped entry inhibition, cell reporter; control for the full effect not named in the record; about a third of the inactives were read at about 46 µM; Potency, µM (titrated, usually from 37.8 µM), for inactives: at the top dose activity change, negative = inhibition, usual class: inhibitors; 300,000 compounds, 1.8% hits; active = well fitted inhibition curve with a large enough effect; inconclusive = small, poorly fitted or top-dose-only effect, or effect the other way; inactive = flat fitted curve, though single readings scatter; tested in HEK293 cells; about a fifth of its hits are not listed in these tables; note: % is set by controls: 0 for no effect and ±100 for the full control effect; luciferase read-out
# RE007 growth inh = less growth of the S. pombe RE007 Vpr strain | AID 651644 | Potency, µM (series often up to 92.2 µM), for inactives: at the highest dose activity change, negative = less growth | 360,000 compounds, 0.21% hits | S. pombe RE007 Vpr strain, BacTiter-Glo ATP luminescence, 24 h; control for the full effect not named in the record; active = well fitted falling curve with a large enough effect; inconclusive = small, poorly fitted or top-dose-only effect; inactive = no such curve, though single readings can be large or run the other way;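 note: % is set by controls: 0 for no effect and ±100 for the full control effect; nearly all actives have a fitted effect of over 50% in size; the assay follows cell death caused by Vpr and the record does not say whether a fall means rescue or toxicity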
#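 Fission yeast RE007 carrying one integrated HIV-1 vpr copy, seeded at OD 0.01 in PMG+AL medium with 23 nL pinned compound. Grown 24 h at 30 degrees; viability read by BacTiter-Glo luminescence after 5 min.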
# Cruzain inh noDet = inhibitors of Trypanosoma cruzi cruzain without detergent; purified cruzain, Z-FR-AMC fluorescence, no detergent; Potency, µM, for inactives: max response, negative = inhibition, hits mostly inhibitors; 200,000 compounds, 2.3% hits; AID 1476; active = well fitted curve in the direction sought with a large enough effect; inconclusive = small, poorly fitted or top-dose-only effect, or another doubt; inactive = no such curve, though single readings can be large; an effect the other way counts as inactive or inconclusive;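 note: plate controls were enzyme without inhibitor for no effect and buffer without enzyme for full effect; nearly all actives have a fitted effect of over 40% in size; top concentration of the series not given in the record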
# Target sequence (P25779 123-467 limits assumed): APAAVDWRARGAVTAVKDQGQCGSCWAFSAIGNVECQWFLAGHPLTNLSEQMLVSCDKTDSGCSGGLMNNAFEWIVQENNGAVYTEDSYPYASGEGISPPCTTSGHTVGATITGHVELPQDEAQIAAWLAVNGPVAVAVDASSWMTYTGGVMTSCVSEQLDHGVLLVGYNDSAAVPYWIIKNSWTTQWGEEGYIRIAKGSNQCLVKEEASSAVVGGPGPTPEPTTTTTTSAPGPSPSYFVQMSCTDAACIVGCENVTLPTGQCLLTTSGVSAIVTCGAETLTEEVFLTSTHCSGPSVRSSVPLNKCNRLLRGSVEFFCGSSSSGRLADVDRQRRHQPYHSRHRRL
#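 Purified cruzain at 1.5 nM, pre-incubated 15 min with compound at room temperature in 100 mM sodium acetate pH 5.5, 5 mM DTT, 0.00005% Triton X-100. Reaction started with 2 uM Z-FR-AMC; AMC fluorescence increase over 60 s gives rate.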
# Cruzain inh Det = inhibitors of Trypanosoma cruzi cruzain with detergent | 200,000 compounds, 0.43% hits | P25779 | purified cruzain, Z-FR-AMC fluorescence, 0.01% Triton | Potency, µM, inactives show max response, negative = inhibition, actives largely listed as inhibitors | AID 1478; active = well fitted curve in the direction sought with a large enough effect; inconclusive = small, poorly fitted or top-dose-only effect, or another doubt; inactive = no such curve, though single readings can be large; an effect the other way counts as inactive or inconclusive;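 note: plate controls were neutral wells for no effect and buffer without enzyme for full effect; nearly all actives have a fitted effect of over 40% in size; top concentration of the series not given in the record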
#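 Purified cruzain (1.5 nM final) was preincubated with compounds for 15 min at room temperature in 100 mM sodium acetate pH 5.5, 5 mM DTT, 0.01% Triton X-100. Reaction started with 2 uM Z-FR-AMC; AMC fluorescence change over 60 s gave activity.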
# NS1 inh = inhibitors of influenza NS1 protein function; AID 2326; S. cerevisiae slowed by influenza A NS1, growth recovery by OD600; Potency, µM (highest dose often 46.1 µM), for the others: top-dose activity, positive = more growth; 270,000 compounds, 0.4% hits; note: actives are rising curves; nearly all actives have a fitted effect of over 50% in size
#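 A cell-based growth assay was used: compounds that relieve NS1-induced slow growth of budding yeast raise OD600. Assay medium was yeast nitrogen base with ammonium sulphate and -URA supplement, pH 6.0, with 2% galactose.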
# SARS PLpro yeast = inhibitors of SARS-CoV papain-like protease in yeast; AID 485353; Potency, µM (highest dose often 32.9 µM), for the others: at the top dose activity, positive = growth rescue; 330,000 compounds, 0.19% hits; S. cerevisiae expressing SARS-CoV PLpro, growth rescue; control for the full effect not named in the record; note: 0% is about no effect; nearly all actives have a fitted effect of over 55% in size; growth read by luminescence after 48 h
# Lassa entry inh = blocks Lassa virus binding to or entry into cells | Lassa virus pseudotype entry inhibition, cell reporter; control for the full effect not named in the record | Potency, µM (top dose mostly 37.9 µM), for inactives: at the top dose activity change, negative = inhibition, hits mostly inhibitors | 300,000 compounds, 1.2% hits | AID 540256; active means well fitted inhibition curve with a large enough effect; inconclusive means small, poorly fitted or top-dose-only effect, or effect the other way; inactive means flat fitted curve, though single readings scatter; tested in HEK293 cells; note: % is set by controls: 0 for no effect and ±100 for the full control effect; nearly all actives have a fitted effect of over 50% in size; luciferase read-out
# Starred values were filed as active, the others as inactive; ? = inconclusive; . = not tested or not shown; & = joins results of further samples; [ ] = dose if it differs, or a comment. Unless noted, calls come from the whole dose curve; as a rule, active means well fitted rising curve with a large enough effect; inconclusive means small, poorly fitted or top-dose-only effect; inactive means no such curve, though single readings can be large or run the other way. Potency is the fitted concentration of half-maximal effect.
Molecule | 2A StopGo | MARV entry inh | RE007 growth inh | Cruzain inh noDet | Cruzain inh Det | NS1 inh | SARS PLpro yeast | Lassa entry inh
CCOC(=O)c1c(-c2ccccc2)oc2cc(Br)c(O)cc12 | -5.0% | . | -0.8% | . | . | -1.0% | -3.7% | .
CCOC(=O)C1(Cc2ccccc2)CCCN(Cc2ccccn2)C1 (stereo not given) | 28.9% | 2.5%[46.1 µM] | -1.0% | . | . | 3.3% | 0.9% | -10.0%[46.1 µM]
O=C(CSc1nc2ncccc2[nH]1)NC1CCCC1 | -23.9% | . | 9.9% | . | . | 5.2% | -4.9% | .
Cc1ccc(S(=O)(=O)N2CCCC2)cc1C(=O)NCc1ccccn1 | -12.7% | 12.2% | 5.7% | . | . | 3.7% | 0.1% | 13.4%
CCOc1ccc(C(=O)NCc2cccs2)cc1 | 64.8%[activator] | 20.5% | -14.8% | 10.4% | 4.0% | -14.2% | 4.6% | 11.0%
COc1ccc(-c2ccc(/C=C3/C(=N)N4C(C)=CSC4=NC3=O)o2)c([N+](=O)[O-])c1 | 39.8µM* | -3.3% | 42.3% | -26.0% | -12.7% | -5.0% | 17.1% | -0.2%
O=C(CSc1nnc(CNC(=O)c2ccccc2F)o1)NC1CCCC1 | 12.7% | -29.4%[46.1 µM] | 2.7% | . | . | 4.0% | 3.5% | 6.6%[46.1 µM]
COc1cccc(C2/C(=C(\O)c3ccc4c(c3)OCCO4)C(=O)C(=O)N2Cc2cccnc2)c1 (stereo not given) | -1.9% | 3.1%[46.1 µM] | 4.7% | . | . | -2.1% | ? | .
CC(=O)c1cccc(NC(=O)C2CC(=O)N(C3CCCC3)C2)c1 (stereo not given) | -2.4% | ? | 0.7% | . | . | . | 5.3% | 14.0%
Cc1nc2c(nnn2Cc2ccccc2)c(=O)n1-c1ccccc1 | -22.8% | -7.5% | -2.9% | -3.3% | -1.2% | -0.2% | -1.1% | -1.7%
CCn1c(SC(C)C(=O)Nc2ccc(N3CCOCC3)cc2)nnc1-c1ccco1 (stereo not given) | -9.6% | ? | 19.6% | . | . | . | -3.1% | 8.8%
O=C(O)CC1(C(=O)O)CCCC1 | -2.9% | 5.4%[46.1 µM] | 23.5% | . | . | . | . | 18.6%[46.1 µM]
CC#CC#Cc1cccc(=O)o1 | -25.6% | . | -4.5% | . | . | -51.2% | -0.8% | .
CCOC(=O)C(C)NC(=O)C(NC(=O)C1CCC(CC)CC1)C(C)C (stereo not given) | -14.7% | -18.0% | 6.6% | 6.5% | 1.6% | -13.0% | . | 4.4%
Cc1ccc2ncc(C(=O)NCCc3ccc(S(N)(=O)=O)cc3)c(=O)n2c1 | -14.9% | 6.1%[46.1 µM] | . | -12.8% | -0.6% | . | . | .
CCOC(=O)c1cccc(NC(=O)CCc2c(C)nc3ncnn3c2C)c1 | -12.1% | 3.0% | 4.7% | 15.0% | 5.8% | 3.9% | 0.3% | -3.2%
O=C(CSc1ncc2c(n1)-c1ccccc1N(Cc1ccc(F)cc1)S2(=O)=O)c1ccc(Cl)cc1 | -19.5% | . | . | 25.1µM* | 0.8% | . | . | 21.7%[46.1 µM]
Cc1ccc(Nc2nc(C)cc(C)c2C(N)=O)cc1 | -8.5% | ? | 9.4% | 2.3% | 3.8% | -2.9% | -10.2% | 10.9%
O=C(C1=C(O)C(=O)N(CC2CCCO2)C1c1cccc(Cl)c1)c1ccco1 (stereo not given) | 31.4%[activator] | 13.2%[46.1 µM] | 33.8% | . | . | 6.9% | 1.0% | 2.9%[46.1 µM]
O=P(Oc1ccccc1)(N1CCOCC1)N1CCOCC1 | -2.8% | 8.3%[46.1 µM] | 10.5% | . | . | . | . | 24.0%[46.1 µM]
CSCC[C@H](NS(=O)(=O)c1ccc(C)cc1)C(=O)N1CCC(C(=O)N[C@@H](Cc2ccc(O)cc2)C(=O)O)CC1 | -0.2% | . | 3.5% | . | . | -0.3% | -6.4% | .
COc1ccc(CNC(=O)c2cc3ccccc3o2)cc1OC | 2.8% | 2.0%[46.1 µM] | -17.4% | . | . | -4.9% | -9.6% | ?
CCCCC(=O)Nc1nnc(SCC(=O)NCC2CCCO2)s1 (stereo not given) | -10.6% | ? | -4.7% | . | . | . | -0.7% | 19.2%
Cc1oc2cc(O)cc(O)c2c(=O)c1-c1ccc2c(c1)OCCCO2 | . | -4.0% | 0.7% | 2.8% | -7.8% | -102.3% | -19.9% | -10.1%
CCOC(=O)c1[nH]c(C)c(C(=O)Nc2ccc(C)c(C)c2)c1C | 44.5%[activator] | . | 11.4% | 7.0% | -8.3% | -6.3% | -9.5% | .
CC(C)CN1CCc2nc(N3CCN(c4ncccn4)CC3)ncc2C1 | 2.8% | . | . | 4.0% | -1.5% | . | . | ?
Cc1cc(C)c2c(CC(=O)NCc3ccco3)coc2c1 | 5.9% | -29.5% | 3.3% | 4.8% | 2.4% | -8.9% | -7.2% | ?
CCOC(=O)c1ccc(NC(=S)N2CCC(O)CC2)cc1 | 51.8%[activator] | ? | -5.0% | -11.2% | -2.6% | 10.4% | 1.9% | 6.2%
COc1nc(N(C#N)CC(N)=O)nc(N2CCCC2)n1 | 1.0% | 5.9% | -10.5% | ? | -27.2% | 2.2% | 1.0% | 1.4%
OC(COc1ccccc1CNCc1cccnc1)CN1CCc2ccccc2C1 (stereo not given) | -10.2% | . | 1.3% | . | . | 1.8% | 1.2% | .

# 3 structures out of the list, ordered by count of non-hydrogen atoms, largest number first:
Molecule | 2A StopGo | MARV entry inh | RE007 growth inh | Cruzain inh noDet | Cruzain inh Det | NS1 inh | SARS PLpro yeast | Lassa entry inh
O=C(CSc1ncc2c(n1)-c1ccccc1N(Cc1ccc(F)cc1)S2(=O)=O)c1ccc(Cl)cc1 | -19.5% | . | . | 25.1µM* | 0.8% | . | . | 21.7%[46.1 µM]
CCCCC(=O)Nc1nnc(SCC(=O)NCC2CCCO2)s1 (stereo not given) | -10.6% | ? | -4.7% | . | . | . | -0.7% | 19.2%
CCOC(=O)c1ccc(NC(=S)N2CCC(O)CC2)cc1 | 51.8%[activator] | ? | -5.0% | -11.2% | -2.6% | 10.4% | 1.9% | 6.2%

# Next part:
Molecule | 2A StopGo | MARV entry inh | RE007 growth inh | Cruzain inh noDet | Cruzain inh Det | NS1 inh | SARS PLpro yeast | Lassa entry inh
CC(=O)N(Nc1ccccc1)c1ccccc1 | 5.9% | -3.2%&-3.2% | 0.5% | . | . | 7.6% | 1.9% | ?
O=C(c1ccccc1)c1cncc(Br)c1 | 1.7% | 10.4% | -3.7% | -8.1% | -5.8% | -1.7% | -0.7% | 8.3%
CCCCN(C)C(=O)Cc1c(OC)ccc2cc(Br)ccc12 | -22.3% | ? | -2.6% | -10.5% | -7.3% | -60.1% | -16.3% | ?
COC(=O)/C(=C/N(C)C)C(=O)N1CCN(c2ccc(Cl)c(Cl)c2)CC1 | -26.0% | ? | 0.2% | . | . | . | -3.0% | 6.6%[46.1 µM]
O=C1CCCCC1C(Nc1ccc(Cl)cc1)c1ccccc1 (stereo not given) | -22.8% | -9.3% | 4.3% | ? | -4.0% | 12.6% | -19.9% | 3.2%
FC(F)(F)c1ccc(C2[C@H]3CN(CC4CCCCC4)[C@H](c4ccccc4)C34CC2(c2cccnc2)C4)cc1 (stereo not given in full) | 3.1% | . | -4.2% | 1.9% | 0.5% | -0.6% | -1.9% | .
O=C(N/N=C/c1c(F)c(F)c(F)c(F)c1F)c1cc(-c2ccccc2)nc2ccccc12 | 0.0% | . | 12.2% | . | . | -1.7% | -0.5% | .
COc1ccc(CCC(=O)NCc2nc3cccnc3n2Cc2cccc(OC)c2)cc1 | 1.0% | . | . | -14.0% | -5.0% | . | . | -8.5%[46.1 µM]
COc1ccc(CNC(=O)CCSCc2cccc(Cl)c2)c(OC)c1 | -20.8% | -18.2% | 7.7% | 1.6% | -6.5% | -3.2% | -4.7% | 5.8%
Cc1cccc(NC(=O)NNC(=O)COc2ccc(Cl)cc2)c1 | 2.2% | . | 9.9% | . | . | -1.2% | 0.7% | .
O=C(/C=C/c1ccc([N+](=O)[O-])cc1)N1CCN(Cc2ccccc2)CC1 | 0.0% | -9.8%[46.1 µM] | 2.8% | . | . | 6.0% | -1.0% | 19.4%[46.1 µM]
COc1ccc(NC(=O)CC2CCCC2)cc1OC | 12.8% | 10.3%[46.1 µM] | 4.0% | . | . | -2.1% | -0.4% | 17.5%[46.1 µM]
O=C(Oc1ccc(-c2nnco2)cc1)N1CCOCC1 | -0.7% | -2.0%[46.1 µM] | 17.1% | -1.2% | -1.4% | -0.3% | -3.5% | 0.0%
CCc1ccccc1NC(=O)Cn1ccn(Cc2ccccc2)c(=O)c1=O | 9.4% | . | . | 9.6% | -0.5% | . | . | ?
Cc1ccc(NC(=O)Cn2c(=O)n(Cc3ccco3)c(=O)c3sc4ccccc4c32)cc1C | 0.0% | 5.5%[46.1 µM] | . | 20.4% | -25.5% | . | . | 4.2%[46.1 µM]
CC(C)(CCc1ccccn1)C(=O)CCCc1ccccn1 | -4.7% | ? | -3.3% | . | . | . | . | 0.0%[46.1 µM]
Cc1cccc(C)c1OCC(=O)NNC(=O)Nc1ccc(Cl)cc1 | 36.7%[activator] | 2.4% | -0.8% | -1.6% | -1.4% | 1.3% | 8.6% | 1.3%
COc1ccc(NC(=O)C2CCCN2S(=O)(=O)c2cccs2)c([N+](=O)[O-])c1 (stereo not given) | ? | -2.0%[46.1 µM] | -13.4% | . | . | . | -5.0% | -2.3%
CC(C)(C)NC(=O)CSc1nnnn1C(C)(C)C | 18.8% | 25.9% | 6.7% | -0.9% | 2.9% | -0.8% | -4.5% | 9.0%
CCc1ccc2occ(CC(=O)Nc3c(C(=O)c4ccc(F)cc4)oc4ccccc34)c2c1 | -14.1% | 4.8%[46.1 µM] | . | -13.4% | -0.9% | . | . | -2.6%[46.1 µM]
